eIF4H inh – human eIF4H binding inhibitors, primary screen, translation initiation inhibitor project, biochemical, uHTS, fluorescence polarization. 290,000 compounds, 0.94% hits. AID 2012, 2009. Eukaryotic translation initiation factor 4H (Homo sapiens), Q15056. eIF4H fluorescence polarization binding assay. inhibition, % at 35 µM;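 active = 50% or more with normal probe brightness, or confirmed in later tests; inconclusive = above 50% with abnormal brightness, or retests that disagree; inactive = below 50% or failed in later tests; about a fifth of its hits are not listed in these tables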;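 also: calls also rest on retests at 20 µM and on dose response follow-up; 0% = protein and probe with vehicle and 100% = probe without protein; strong numbers were not always called active; many hits fall short of the cut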
CSC inhib – cancer stem cell viability inhibitors, primary screen, luminescence | cancer stem cell-like cells viability | inhibition, % at 7.5 µM | 300,000 compounds, 1.1% hits;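 active = mean at 75% or more and at least half the replicates too; inconclusive = mean and replicates disagree; tested in HMLE shEcad cells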;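 also: 0% = median of negative and 100% = median of positive control wells; the first replicate is given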
HIV Env fusion – inhibitors of HIV-1 Env-driven cell-cell fusion, primary screen, HeLa-JRFL effector, CEM21 target cells, luciferase; inhibition, % at 12.3 µM; 360,000 compounds, 1.1% hits; AID 651610, 2012;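 active = mean replicate inhibition score of at least 50 and every replicate individually at or above 50; inconclusive = only one of the two criteria met; inactive = mean below 50 and not all replicates reaching 50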;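 also: 0% = plate neutral controls and 100% = maraviroc near 300 nM; one replicate is shown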
Rce1 inh – yeast Rce1p protease inhibitors, primary screen, biochemical, fluorescence, cell-free homogeneous; CAAX prenyl protease 2 (Saccharomyces cerevisiae (strain ATCC 204508 / S288c)), Q03530; yeast membranes, quenched prenylated peptide cleavage fluorescence; calls only; 290,000 compounds, 0.27% hits; AID 2563, 2010;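 active = fall in fluorescence gain of 50% or more versus controls, with final raw signal at or below 3038400; inconclusive = same 50% fall but final raw signal above 3038400; inactive = fall in fluorescence gain under 50%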;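 also: plate controls were neutral control wells for no effect and wells lacking membranes for full effect; tested at 10 µM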
UUG fidelity – modulators of yeast start codon fidelity, primary screen, whole organism, S. cerevisiae, single point, plate reader; S. cerevisiae UUG-firefly luciferase reporter, luminescence/redox ratio; activity score, % at 18.7 µM; 350,000 compounds, 0.13% hits; AID 602363, 2012;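 active = replicate mean at a twofold rise or more, about +100% in these data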;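 also: firefly luciferase made from a UUG start codon reports start codon fidelity; reporter light over untreated wells divided by growth signal over untreated wells; some hits fall short of that in this replicate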
MT1-MMP act inh – blockers of MT1-MMP proenzyme processing, primary screen, HT1080 RFP-PRO-GFP cells, GFP/RFP fluorescence; Matrix metalloproteinase-14 (Homo sapiens), P50281; GFP/RFP ratio fluorescence, overnight; percent of plate control window, DMSO zero; GFP/RFP ratio change, % at 20 µM; 360,000 compounds, 0.061% hits; AID 651647, 2012;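 active = GFP/RFP ratio change of at least 30% with cell ATP level not reduced by more than half and red fluorescence within 50% of control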; also: strong numbers were not always called active
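Assay system: HT1080 RFP-PRO-GFP cells | Dosing: 20 µM single dose, 1% DMSO | Incubation: Cells overnight before dosing, compound overnight, 37 °C, 5% CO2 | Evaluation: GFP/RFP fluorescence ratio | Control set: DMSO-only wells and HT1080 RFP-L50D-GFP cell wells as references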
PABP polyA inh – PABP poly(A) RNA binding inhibitors, primary screen, biochemical, fluorescence polarization, uHTS. Polyadenylate-binding protein 1 (Homo sapiens), P11940. 290,000 compounds, 1% hits. inhibition, % at 35 µM;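 active = 50% or more with normal probe brightness, or confirmed in later tests; inconclusive = above 50% with abnormal brightness, or retests that disagree; inactive = below 50% or failed in later tests; about a fifth of its hits are not listed in these tables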;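 also: calls also rest on retests at 20 µM and on dose response follow-up; controls were probe without protein and protein plus probe with vehicle; some compounds called inactive have numbers as strong as hits; many hits fall short of the cut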
Target sequence (P11940 whole entry, looked up): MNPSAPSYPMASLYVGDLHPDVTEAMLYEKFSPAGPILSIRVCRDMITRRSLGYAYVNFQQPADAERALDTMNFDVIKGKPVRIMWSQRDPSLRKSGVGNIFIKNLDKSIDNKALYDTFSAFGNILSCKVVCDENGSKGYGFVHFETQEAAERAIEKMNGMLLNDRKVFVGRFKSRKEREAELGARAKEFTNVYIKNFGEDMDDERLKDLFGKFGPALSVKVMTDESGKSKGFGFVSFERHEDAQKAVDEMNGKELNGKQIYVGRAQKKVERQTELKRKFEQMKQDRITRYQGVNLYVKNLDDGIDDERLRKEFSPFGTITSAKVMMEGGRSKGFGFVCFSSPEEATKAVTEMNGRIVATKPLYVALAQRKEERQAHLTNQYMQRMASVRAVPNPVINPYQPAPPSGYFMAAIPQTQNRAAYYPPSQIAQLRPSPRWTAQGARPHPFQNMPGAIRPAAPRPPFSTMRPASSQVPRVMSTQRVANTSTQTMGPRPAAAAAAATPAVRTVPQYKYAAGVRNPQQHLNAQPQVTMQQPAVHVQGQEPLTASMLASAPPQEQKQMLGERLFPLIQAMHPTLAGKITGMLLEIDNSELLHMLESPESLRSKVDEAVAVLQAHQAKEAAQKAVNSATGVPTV
eIF4H inh retest – further read-out of eIF4H inh, marked with its call; inhibition, %; compound at 20 µM; confirmation average;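 mean of two retest wells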
PABP polyA inh retest – second read-out of PABP polyA inh, no call of its own (marks repeat the call); inhibition, %; compound at 20 µM; confirmation repeats;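 mean of two retest wells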
MT1-MMP act inh RFP – also measured in MT1-MMP act inh; calls as there; RFP signal change, %; measured here: RFP expression control read;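 0 = vehicle wells; hits needed this value within 50% of zero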
Numbers without * were called inactive; i = inactive; ? = inconclusive; / = not tested or not shown; & = joins results of further samples. A portion of the library; count on the stated rates, not on these rows.

SMILES	eIF4H inh	CSC inhib	HIV Env fusion	Rce1 inh	UUG fidelity	MT1-MMP act inh	MT1-MMP act inh RFP	PABP polyA inh	others
CCn1nc(C)c(CN2CCc3c([nH]c4ccccc34)C2C(C)(C)C)c1C (stereo not drawn)	3	2	-5	i	/	-7	-2	-8
O=C(Nc1ccc(Cl)cc1Cl)c1ccc(Br)o1	6	-4	-52	i	-10	1	8	4
O=C(N/N=C/c1ccccc1F)c1ccc(COc2ccccc2Cl)o1	0	28	16	i	-7	1	-1	1
Cc1ccc(CSc2nnc(-c3cccnc3)o2)cc1	7	-9	/	i	-15	1	-1	0
CC(C)Cn1c(N)c(C(=O)CSc2nccn2C)c(=O)n(C)c1=O	/	-14	19	i	-17	0	1	/
O=C(NCCc1ccc(Cl)cc1)C1CCC(=O)N1C1CCCC1 (stereo not drawn)	-6	4	/	i	6	-4	1	-18
CCN(CC)CCOc1ccccc1OC	-1	17	-19	i	-4	-3	-2	8
Cc1cc(NC(=O)c2cccs2)ccc1NC(=O)Cc1ccccc1	-5	-4	4	i	/	2	1	-1
CCCSc1ccc([C@H]2N[C@@](C)(C(=O)OC)[C@H]3C(=O)N(CC)C(=O)[C@@H]23)cc1	/	/	10	/	-6	-2	0	/
CC(C)n1c(C(F)(F)F)nc2cc(C(=O)N3CCCCC3)ccc21	-2	-20	21	i	/	2	5	-4
Cc1ccnc(NS(=O)(=O)c2ccc(CC(C)C)cc2)c1	-1	-3	-5	i	5	4	2	5
Cn1c(=O)oc2cc(S(=O)(=O)N3CCN(c4ccccc4F)CC3)ccc21	?	19	3	i	-11	-23	-14	?
CCCOc1cccc(C(=O)NCCNC(=O)c2ccccn2)c1	-6	-9	-3	i	-9	0	6	-3
COc1cccc(C2=CC(=O)CC(C)(C)C2)c1OC	/	-7	11	/	-20	2	-4	/
CCC1CCCCN1C(=O)c1ccccc1OC1CCN(S(C)(=O)=O)CC1 (stereo not drawn)	-5	-12	-3	i	/	0	2	-1
Cc1nnc(Sc2nc3c(c(=O)n(C)c(=O)n3C)n2Cc2ccccc2Cl)s1	/	0	-80	i	15	3	-6	/
NS(=O)(=O)c1ccc(CCNC(=O)C2CCCN(S(=O)(=O)c3cccnc3)C2)cc1 (stereo not drawn)	0	-13	16	/	-11	-3	0	3
NCC[C@H](O)C(=O)N[C@@H]1C[C@H](N)[C@@H](O[C@H]2O[C@H](CN)[C@@H](O)[C@H](O)[C@H]2O)[C@H](O)[C@H]1O[C@H]1O[C@H](CO)[C@@H](O)[C@H](N)[C@H]1O	-6	/	-6	/	-15	-3	3	0
O=C1CC(N2CCN(c3ccccn3)CC2)C(=O)N1c1ccc(F)cc1 (stereo not drawn)	0	/	11	i	-14	0	-4	-6
NC(=O)c1cccc(-c2cccc3nccn23)c1	/	/	-8	/	-19	-4	0	/
C=CCNC(=O)C(=O)NCC(c1ccc2c(c1)OCO2)N1CCOCC1 (stereo not drawn)	-1	-9	0	i	-3	5	7	-1
CCCNC(=O)c1cc(-c2ccc(OC)cc2)on1	-3	3	-266	i	-19	-3	3	-3
COc1cc(/C=C2\C(=O)ON=C2c2ccccc2)cc(Cl)c1O	-6	2	9	i	/	29	53	1
Cc1cc(C)nc(SCC(=O)NN=C2CCCC2)n1	2	7	2	i	/	3	0	0
Cc1ccccc1NC(=O)CNC(=O)N1CC(=O)Nc2ccccc21	/	/	-1	/	-19	-3	1	/
Cc1ccc(OC(=O)N(C)C[C@@H]2OCc3cn(nn3)CCCC(=O)N([C@@H](C)CO)C[C@H]2C)cc1	/	/	-40	/	8&6	-1	4	/
COc1ccc(OC)c(NC(=S)N2CCN(Cc3ccccc3)CC2)c1	-6	-5	5	i	/	2	-2	-4
Cc1ccc(-c2nnc(SCc3ccc(C#N)cc3)n2Cc2ccco2)cc1	-9	/	-25	i	-16	-1	-6	-12
CN(C)CCNC(=O)c1c(CSc2ccccc2)noc1C(=O)NCc1ccccc1	8	-4	-20	i	-7	3	0	1
COc1c(/C=N/NC(=O)c2ccccc2O)c(CCN(C)C(C)=O)cc2c1OCO2	-5	-8	5	i	-13	0	1	23

Looked up by structure from above:
SMILES	eIF4H inh	CSC inhib	HIV Env fusion	Rce1 inh	UUG fidelity	MT1-MMP act inh	MT1-MMP act inh RFP	PABP polyA inh	others
Cc1cc(C)nc(SCC(=O)NN=C2CCCC2)n1	2	7	2	i	/	3	0	0
NC(=O)c1cccc(-c2cccc3nccn23)c1	/	/	-8	/	-19	-4	0	/
COc1c(/C=N/NC(=O)c2ccccc2O)c(CCN(C)C(C)=O)cc2c1OCO2	-5	-8	5	i	-13	0	1	23
COc1cc(/C=C2\C(=O)ON=C2c2ccccc2)cc(Cl)c1O	-6	2	9	i	/	29	53	1

(list continues)
SMILES	eIF4H inh	CSC inhib	HIV Env fusion	Rce1 inh	UUG fidelity	MT1-MMP act inh	MT1-MMP act inh RFP	PABP polyA inh	others
O=C(Cn1cc(C(=O)C2CC2)c2ccccc21)Nc1ccccc1Cl	-10	-3	9	i	-7	0	-3	3
O=C1CS/C(=C\[N+](=O)[O-])N1c1ccc(OC(F)(F)F)cc1	-12	3	-105	i	-8	-2	1	4
COc1cc(-c2noc(C)c2C(=O)NCc2ccc(C)o2)cc(OC)c1OC	/	8	1	/	-13	2	-1	/
O=C(c1ccc([N+](=O)[O-])o1)N1CCc2ccccc21	5	24	-21	i	-13	-3	0	-11
Cc1cn(CC(=O)N[C@H](C)c2cccc3ccccc23)c(=O)[nH]c1=O	/	/	1	/	-5	2	0	/
Cc1ccc(CNC(=O)C2(S(=O)(=O)c3ccc(C)cc3)CC2)cc1	12	/	22	i	-7	-1	-2	2
Cc1ccc(C)n1-c1nc(=S)[nH][nH]1	22	-11	-7	i	-8	16	6	3
COc1ccc(N2CCN(C(=O)CNC(=O)c3ccccc3Cl)CC2)cc1	-10	7	-14	i	-9	-2	-4	-9
COc1cc(NC(=O)NCCN2CCN(c3ccccc3)CC2)cc(OC)c1OC	2	0	8	i	-28	3	1	-15
CNC(=O)CSc1nc2cccnc2n1-c1ccc(F)cc1	-4	13	-20	i	-16	-1	0	-13
O=C(c1sc2cccc(F)c2c1Cl)N1CCN(c2ncccn2)CC1	8	0	-2	i	-6	1	0	6
O=Cc1cc(N=Nc2cccc(C(=O)O)c2)ccc1O	4	22	0	i	/	5	5	24
CC(N=Cc1c(O)c2ccccc2oc1=O)C(=O)O (stereo not drawn)	-7	-2	2	i	/	-11	0	10
O=C1CCc2cc(S(=O)(=O)Nc3cccc(Cl)c3)ccc2N1	/	/	-17	/	-8	1	-3	/
Fc1ccccc1-c1n[nH]c(=S)n1Cc1ccccc1	-3	-14	/	i	-25	4	3	-2

Gathered by group, the compounds so far containing two or more sulfur atoms.
SMILES	eIF4H inh	CSC inhib	HIV Env fusion	Rce1 inh	UUG fidelity	MT1-MMP act inh	MT1-MMP act inh RFP	PABP polyA inh	others
Cc1nnc(Sc2nc3c(c(=O)n(C)c(=O)n3C)n2Cc2ccccc2Cl)s1	/	0	-80	i	15	3	-6	/
NS(=O)(=O)c1ccc(CCNC(=O)C2CCCN(S(=O)(=O)c3cccnc3)C2)cc1 (stereo not drawn)	0	-13	16	/	-11	-3	0	3

Following part:
SMILES	eIF4H inh	CSC inhib	HIV Env fusion	Rce1 inh	UUG fidelity	MT1-MMP act inh	MT1-MMP act inh RFP	PABP polyA inh	others
O=C(O)/C(=C\c1ccco1)NC(=O)c1ccccc1	84	/	/	i	-9	-2	8	1	eIF4H inh retest=-15;PABP polyA inh retest=0
Cc1cc(C)c(C)c(S(=O)(=O)ON2C(=O)c3ccccc3C2=O)c1C	-14	/	/	/	-23	1	5	5
CSc1ncccc1C(=O)NCc1nnc2ccccn12	/	-13	-9	/	-9	-4	2	/
O=C1OCCN1C(=O)[C@H]1[C@H](c2ccc(F)cc2)C(c2ccccc2)=NN1c1ccccc1	/	/	-29	/	-9	-3	-2	/
O=C(CN(Cc1ccco1)C(=O)c1cccc(Cl)c1)Nc1c(Cl)cc(Cl)cc1Cl	-6	-8	32	i	/	1	-4	-15
Cc1cc(SCc2ccccc2C)nc(=O)[nH]1	5	11	4	i	-18	1	2	3
CC(C)C1Oc2cc3oc(=O)ccc3cc2C1=O (stereo not drawn)	-7	-4	-7	i	4	-3	-2	-4
CCOCCCN(C(=O)c1snc(C(N)=O)c1N)C(C(=O)NCCC(C)C)c1ccc(Cl)cc1 (stereo not drawn)	-10	-9	-29	i	10	1	0	1
O=C(CNC(=O)N1CC(=O)Nc2ccccc21)Nc1ccc(F)c(Cl)c1	-2	-10	4	i	-5	3	4	2
COc1ccc(N(CC(=O)Nc2cc(OC)cc(OC)c2)S(=O)(=O)c2c(C)n[nH]c2C)cc1	/	-8	9	i	4	0	0	/
O=C(NC1CC1)C1CCCN(C(=O)Nc2ccc(F)cc2)C1 (stereo not drawn)	-7	-3	5	i	-18	5	4	-2
CC(/C=C1\SC(=S)N(CCCC(=O)Nc2ccc(C(=O)O)c(O)c2)C1=O)=C\c1ccccc1	15	22	/	i	/	/	/	-9
Cc1cc(NC(=O)CCCC(=O)N(c2ccccc2)C(C(=O)NC2CCCCC2)c2cccs2)no1 (stereo not drawn)	-1	-3	38	i	-27	-2	-3	-4
Cc1cc(=O)oc(C)c1C(=O)NCc1cccnc1	1	-16	/	i	-22	1	3	-14
CCCNc1nc(N2CCCC2)nc(N2CCCC2)n1	-9	8	12	i	-8	0	-16	3
CC(C)Cc1cc(C(=O)Nc2cc(C(F)(F)F)ccc2Cl)no1	-1	7	-7	i	/	1	3	-1
O=C(Cn1nc(-c2ccccc2)c2ccccc2c1=O)NCCN1CCOCC1	3	-11	/	i	-14	1	1	-5
COc1ccccc1CNC(=O)COC(=O)Cc1c[nH]c2ccccc12	/	/	3	i	12	2	4	/
CCC12CCCN3CCC4(C(=C(C(=O)OC)C1)Nc1ccccc14)C32 (stereo not drawn)	17	/	/	i	/	2	3	57*	eIF4H inh retest=8;PABP polyA inh retest=97*

An excerpt from above in order of length of the SMILES, rising:
SMILES	eIF4H inh	CSC inhib	HIV Env fusion	Rce1 inh	UUG fidelity	MT1-MMP act inh	MT1-MMP act inh RFP	PABP polyA inh	others
Cc1ccc(CSc2nnc(-c3cccnc3)o2)cc1	7	-9	/	i	-15	1	-1	0
CC(N=Cc1c(O)c2ccccc2oc1=O)C(=O)O (stereo not drawn)	-7	-2	2	i	/	-11	0	10
COc1cc(NC(=O)NCCN2CCN(c3ccccc3)CC2)cc(OC)c1OC	2	0	8	i	-28	3	1	-15

Already shown: entries from further up.
SMILES	eIF4H inh	CSC inhib	HIV Env fusion	Rce1 inh	UUG fidelity	MT1-MMP act inh	MT1-MMP act inh RFP	PABP polyA inh	others
COc1ccccc1CNC(=O)COC(=O)Cc1c[nH]c2ccccc12	/	/	3	i	12	2	4	/
CCC12CCCN3CCC4(C(=C(C(=O)OC)C1)Nc1ccccc14)C32 (stereo not drawn)	17	/	/	i	/	2	3	57*	eIF4H inh retest=8;PABP polyA inh retest=97*
